Assay outcomes (PubChem BioAssay)
D2 potentiator = potentiates the human D2 dopamine receptor allosterically; P14416; DiscoveRx D2 beta-arrestin cells, luminescence, 90 min; 100% = 57 uM dopamine signal; potentiation, % (no concentration beside the values); 360,000 compounds, 0.23% hits; active = potentiation of 50% or more; inconclusive = 30% to 50%; inactive = 30% or less;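 note: compound concentration not given in the record; tested on top of an EC20 dose of dopamine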
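PathHunter D2 cells, attached overnight at 37 deg C, received compound in DMSO plus dopamine at EC20 (50 nM final) for 90 min at 37 deg C. Beta-arrestin recruitment was read as luminescence after 1 h with detection reagent at ambient temperature.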
Six1-Eya2 blk = inhibitors of human Six1/Eya2 interaction | Q15475+O00167 | AlphaScreen GST-Six1/His-Eya2 binding, biochemical; active compounds read low; control for the full effect not named in the record | activity change, % (concentration not given with the values) | 360,000 compounds, 0.56% hits | AID 651725; in the data active = activity change below about -65%; inconclusive = about -30% to -65%; inactive = above about -30%; note: % is set by controls: 0 for no effect and ±100 for the full control effect
Target sequence (O00167 whole entry, looked up): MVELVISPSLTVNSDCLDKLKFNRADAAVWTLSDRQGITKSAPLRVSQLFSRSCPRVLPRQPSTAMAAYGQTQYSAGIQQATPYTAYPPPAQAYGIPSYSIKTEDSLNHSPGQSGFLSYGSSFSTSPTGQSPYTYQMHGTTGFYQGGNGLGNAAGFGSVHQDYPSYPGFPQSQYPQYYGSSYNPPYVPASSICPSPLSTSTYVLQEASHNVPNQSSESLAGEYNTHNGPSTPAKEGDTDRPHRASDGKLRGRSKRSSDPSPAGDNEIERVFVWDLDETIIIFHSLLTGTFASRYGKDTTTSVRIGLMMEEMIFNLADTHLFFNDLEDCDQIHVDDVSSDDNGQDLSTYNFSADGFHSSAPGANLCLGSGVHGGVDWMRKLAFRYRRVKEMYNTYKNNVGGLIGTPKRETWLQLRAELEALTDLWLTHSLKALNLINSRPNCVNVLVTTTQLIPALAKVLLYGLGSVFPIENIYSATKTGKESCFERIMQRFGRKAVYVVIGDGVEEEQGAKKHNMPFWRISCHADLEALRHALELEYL
Target sequence (Q15475 whole entry, looked up): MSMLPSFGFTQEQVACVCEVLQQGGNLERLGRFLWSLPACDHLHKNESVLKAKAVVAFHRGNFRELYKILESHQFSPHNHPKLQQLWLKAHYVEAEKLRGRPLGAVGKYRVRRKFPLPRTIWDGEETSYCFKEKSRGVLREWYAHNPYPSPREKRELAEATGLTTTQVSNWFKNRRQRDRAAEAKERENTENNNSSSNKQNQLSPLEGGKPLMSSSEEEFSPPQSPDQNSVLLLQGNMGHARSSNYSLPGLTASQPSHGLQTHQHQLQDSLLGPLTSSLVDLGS
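AlphaScreen luminescence read after one hour at 37 °C in darkness. Pin-transferred compounds met GST-Six1 and His-Eya2 protein (5X stock 250 nM/500 nM) plus glutathione donor and Ni-chelate acceptor beads (5X, 50 ug/mL).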
PINK1 modulator = modulators of PINK1 expression. PINK1 immunofluorescence, high-content cytometry, 24 h. Potency, µM (titrated, usually from 76.6 µM), without a hit: at the top dose activation (PINK1 increase), usual class: activators. 410,000 compounds, 0.2% hits; active = well fitted activation curve with a large enough effect; inconclusive = small, poorly fitted or top-dose-only effect; inactive = flat fitted curve, though single readings scatter; cell line not stated here;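 note: potency is the fitted concentration of half-maximal effect; % of control where 0% means no effect; nearly all actives have a fitted effect of over 65% in size; a mitochondrial uncoupler was the plate control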
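Readout is PINK1 immunofluorescence, quantified alongside mitochondrial, cell and nuclear markers by laser-scanning microplate cytometry. Cells from a stable line were exposed to compound titrations (5 concentrations) for 24 hours, with CCCP controls.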
TRPML1 ag = human mucolipin-1 channel agonism; Q9GZU1; TRPML1-expressing cells, Ca2+ dye fluorescence, FDSS; host cell line not named in the record; reference of the full effect not given here; activation, % (no concentration beside the values); 410,000 compounds, 0.12% hits; in the data active = activation above about 50%; inconclusive = about 30% to 50%; inactive = below about 30%; note: 0% is about no effect; the text of the record puts the active cut at 80%
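Cells: TRPML1-DL, 1X Tet inducer, ~16 h at 37 degrees C/5% CO2. Dye: ABD Ca8 no-wash + quencher, 45-90 min RT. Read: 10 s baseline, compound add, 110 s agonist phase; 54-4 EC80 (4uM final), 110 s antagonist phase.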
D2 agonist = activates the human D2 dopamine receptor; 360,000 compounds, 0.084% hits; activation, % (concentration not given with the values); DiscoveRx PathHunter D2 beta-arrestin, luminescence, 90 min; 100% = 57 uM dopamine signal; in the data active = activation above about 40%; inconclusive = about 15% to 40%; inactive = below about 15%; note: the text of the record calls up to 30% inactive
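Agonist mode: compounds alone added to overnight-plated D2 PathHunter cells for 90 min at 37 C, with 57 uM final dopamine (EC100) defining full response. Beta-arrestin recruitment detected by chemiluminescent reagent, read after 1 h at ambient temperature.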
TRPML1 blocker = inhibitors of human TRPML1 channel. Q9GZU1. activity change, negative = inhibition, % (test concentration not listed). 390,000 compounds, 0.02% hits. TRPML1-inducible cells, Ca2+ dye fluorescence, FDSS; active compounds read low; inhibition of EC80 agonist-evoked calcium signal; in the data active means activity change below about -50%; inconclusive means about -30% to -50%; inactive means above about -30%;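 note: stimulus is agonist 54-4 at its EC80 concentration; % is set by controls: 0 for no effect and ±100 for the full control effect; compound concentration not given in the record; the text of the record puts the active cut at -80%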
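Tet-induced TRPML1-DL cells loaded with Ca8 no-wash calcium dye were read kinetically on FDSS. Compound addition was followed by EC80 agonist 54-4 (4 uM final); inhibition was read over 110 s.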
Numbers without * were called inactive; ? = inconclusive; · = not tested or not shown; & = joins results of further samples; [ ] = another dose, or the depositor's remark.

entry	canonical_smiles	PINK1 modulator	Six1-Eya2 blk	D2 agonist	TRPML1 ag	TRPML1 blocker	D2 potentiator
1	Cc1ccccc1CN1CCN(CC(=O)NCc2ccccc2)CC1	-0.4%	-9	1.2	0.4	-10	-9
2	CSc1nn(Cc2ccc(F)cc2)c(N(C(C)=O)C(C)=O)c1S(=O)(=O)c1ccccc1	7.2%	·	·	1.3	16	·
3	CC(=O)Oc1ccc(N2C(=O)CCC2=O)cc1	0.0%	-1	-4.1	-1.1	4	1
4	CCS(=O)(=O)c1nc(S(=O)(=O)c2ccc(C)cc2)c(N2CCCC(C)C2)s1 (configuration not stated)	-1.4%	-1	0.0	1.8	2	-3
5	COC(=O)c1ccc2c(=O)n(CCCN3CCCC3=O)c(=S)[nH]c2c1	?	1	0.5	0.3	3	-12
6	O=S(=O)(O)c1cccc2c(N=Nc3ccc(O)c4ncccc34)cccc12	1.8%	32	-1.9	0.9	11	-16
7	O=C(O)CSc1cc(NS(=O)(=O)c2ccc(Cl)cc2)c2ccccc2c1O	-0.9%	-27	?	2.4	-5	-6
8	COc1ccc(CNCC(O)(c2ccc(F)cc2)c2ccc(F)cc2)cc1OC	14%	-9	-0.2	0.3	-22	-23
9	C1CN(CCN2CCOCC2)CCN1	-1.4%	-5	2.9	0.7	6	-1
10	COc1cccc(NC(=O)NC2(C(=O)N3CCC(O)CC3)CCCCC2)c1	4.3%	8	4.5	0.0	6	3
11	Cc1ccc(SCC(=O)OCC(=O)N(CC(C)C)C2CCS(=O)(=O)C2)cc1C (configuration not stated)	-2.0%	2	-6.4	-0.9	-9	7
12	CCOC(=O)N1CCN(S(=O)(=O)c2cc(Br)cc3c2N(C(C)=O)C(C)C3)CC1 (configuration not stated)	-0.9%	4	-1.9	-0.5	17	8
13	Cc1ccc(S(=O)(=O)N2C[C@H]3C(=O)C[C@@H](c4ccccc4)N(S(=O)(=O)c4cccc(C)c4)[C@H]3C[C@H]2c2ccccc2)cc1	0.5%	4	-4.6	3.4	-22	-6
14	CN(C(=O)c1ccc(Br)o1)C1(C)CCS(=O)(=O)C1 (configuration not stated)	2.1%	10	-3.9	-0.6	6	-15
15	COc1ccc(CN2COc3ccc4c(oc(=O)c5ccccc54)c3C2)cc1OC	0.8%	·	·	-0.5	21	·
16	CCCCCn1c(CCCNC(=O)c2ccccc2)nc2ccccc21	1.3%	·	·	-0.5	8	·
17	COc1ccc(NS(=O)(=O)c2ccc3c(c2)C(C(C)C)C(=O)N3)cc1 (configuration not stated)	-4.5%	·	·	0.1	-2	·
18	O=C(Cn1cc(C(=O)C(F)(F)F)c2cc(Br)ccc21)N1CCOCC1	-0.4%	10	4.7	0.2	22	-11
19	COc1ccc(NC(=O)CCS(=O)(=O)c2nc(-c3ccc4c(c3)OCO4)cc(C(F)(F)F)n2)cc1	3.6%	·	·	-0.4	6	·
20	COc1ccccc1OCC(=O)Nc1nnc(-c2ccco2)s1	-0.9%	7	-1.2	-0.4	3	1
21	COc1cccc(C(=O)NC2CC(C)(C)Cc3c2cnn3-c2cccc(F)c2)c1OC (configuration not stated)	1.1%	-6	-4.4	-0.6	4	-1
22	CC(C)c1ccc(S(=O)(=O)NCc2nc3cccnc3n2Cc2ccc(F)cc2)cc1	-0.1%	·	·	2.8	31	·
23	CC(C)CC(c1nnnn1C1CCCCC1)N1CCN(c2ncccn2)CC1 (configuration not stated)	-3.3%	2	-2.5	2.7	1	-10
24	Oc1ccc(-c2csc(-c3cccnc3)n2)cc1O	-4.4%	-9	5.7	2.3	-14	16
25	C[C@H](CO)N1C[C@H](C)[C@@H](CN(C)C(=O)c2ccc(N3CCN(C)CC3)cc2)OCc2cnnn2CCCC1=O	0.8%	2	-4.4	0.2	2	-8
26	COc1ccc(-c2nc(NC(=O)Cn3ccc(C(F)(F)F)n3)sc2C)cc1	1.0%	-11	3.0	1.0	10	?
27	Cc1cccc(C)c1-n1nnnc1-c1cnccc1C(F)(F)F	-1.4%	5	5.1	2.1	-2	3
28	COc1ccc(C(=O)Nc2cc(C)c3c(=O)oc4ccccc4c3n2)cc1	3.9%	-1	-4.6	-1.0	2	-4
29	O=[N+]([O-])c1ccccc1S(=O)(=O)Nc1cccnc1	0.7%	13	0.1	-0.2	2	-4
30	Cc1cccc(OCCC(=O)NNC(=O)Cn2nc(C)cc2C)c1	0.6%	4	1.1	1.8	6	-13
31	CCOC(=O)c1c(N)sc(C(N)=O)c1C	-1.4%	-4	-3.1	0.6	1	-11
32	O=C(/C=C/c1cc(Br)ccc1O)c1ccco1	-1.2%	-1	-4.7	·	·	-25
33	CCCS(=O)(=O)c1nc(S(=O)(=O)c2ccc(C)cc2)c(NCC(C)C)s1	2.2%	·	·	1.5	-24	·
34	CN(CC(=O)N1CC=C(c2ccccc2)CC1)S(=O)(=O)c1cnc[nH]1	0.6%	1	-1.6	-0.9	0	4
35	Cc1cccc(-n2nc(CC#N)c(C#N)c2N)c1	0.1%	?	3.4	-0.3	3	-85
36	Cc1ccccc1Cn1nc(C)c(NC(=O)c2cc(-c3ccc(F)cc3)on2)c1C	6.4%	·	·	0.4	7	·
37	Nc1nonc1-n1nnc(C(=O)N/N=C/c2ccc(Br)cc2)c1CSC1=NCCS1	?	-7	-2.0	0.2	1	-3
38	Cc1ccc(N2C(=O)C3C(C2=O)N2CCCN2C3c2ccccc2)cc1C (configuration not stated)	1.0%	2	-3.4	0.3	-4	-5
39	Cc1cccc(CCNC(=O)CCc2c(C)nc3c(c(C)nn3-c3ccccc3)c2C)c1	2.4%	·	·	1.6	-6	·
40	Cn1c(=O)c2c(nc(SCc3ccc(F)cc3)n2C)n(C)c1=O	0.8%	8	-0.1	-0.2	-14	14
41	CCc1ccc(-n2c(=O)c3cccnc3n2CC(=O)NCc2ccc(C)cc2)cc1	-0.3%	·	·	1.3	2	·
42	CCCC(=O)OCC(=O)Nc1ccccc1C#N	1.2%	1	-3.1	0.0	11	-4
43	C=CCN1C(=O)/C(=C/c2ccc(OC(C)=O)c(OCC)c2[N+](=O)[O-])SC1=S	4.5µM*	?	2.8	1.9	17	5
44	COc1ccc(NC(=O)CSc2oc(-c3cccs3)nc2S(=O)(=O)c2ccccc2)c(OC)c1	-1.6%	·	·	0.9	17	·
45	O=C(O)c1occc1CSc1ccccc1	-2.1%	6	-2.3	-0.7	-11	2
46	CCNc1ccc(Br)cc(C(=O)/C=C/c2ccc3c(c2)OCO3)c1=O	-0.4%	-5	-3.9	1.1	-10	21
47	CN(Cc1ccco1)C(=O)CCc1nc2sc3c(c2c(=O)[nH]1)CCCC3	3.5%	-2	-11	0.4	32	-9
48	CS(=O)(=O)NCCCCCCNS(C)(=O)=O	2.9%	-8	1.5	0.2	-7	-4
49	N#CCCCCN1CCCC1	-0.3%	-1	-4.6	-0.3	-9	0
50	O=C(OCc1ccccc1Cl)c1ccc(-c2nnn(Cc3ccccc3)n2)cc1	-0.5%	·	·	3.7	17	·
51	O=C(COC(=O)Cc1ccc(Br)cc1)NC12CC3CC(CC(C3)C1)C2	-1.7%	2	-1.6	-0.3	9	4
52	COc1ccc(OCCC(=O)OCC(=O)Nc2cccc(Br)c2)cc1	-2.7%	29	-2.7	0.8	8	3
53	CCNC(=O)C1(C)CCCN(Cc2noc(-c3c(C)noc3C)n2)C1 (configuration not stated)	0.5%	-1	-5.1	3.2	92	-6
54	Cc1cc(NS(=O)(=O)c2ccc(NC(=O)CSc3nc4ncccc4[nH]3)cc2)nc(C)n1	-0.9%	-7	0.1	0.0	4	-2
55	CC1CCN(c2nc3ccc(C(=O)NCCCN4CCCCC4)cc3s2)CC1	3.0%	-6	3.1	-0.6	22	-8
56	CC/C(=C(\c1ccc(O)cc1)c1ccc(OCCN(C)C)cc1)c1ccccc1	1.1%	-4	2.0	0.0	-10	-15
57	CCCC/C(C)=N/NC(=O)c1cn(-c2ccccc2)nc1-c1ccccc1	0.7%	-4	-4.2	3.1	6	-10
58	COc1cc(CNc2ccc(NC(C)=O)cc2)ccc1OCc1ccccc1C	-0.1%	-9	-1.2	-0.7	-1	-13
59	Cc1ccc(-n2nnnc2SCC(=O)N2c3ccccc3NC(=O)C2(C)C)cc1	-2.5%	-2	-2.6	0.6	67	-23
60	COc1ccc(CNS(=O)(=O)c2ccc(-n3cccn3)cc2)cc1	3.4%	3	0.0	2.5	11	-21

Reformatted with each value named: part of the list above
52) COc1ccc(OCCC(=O)OCC(=O)Nc2cccc(Br)c2)cc1
  PINK1 modulator: -2.7%
  Six1-Eya2 blk: 29
  D2 agonist: -2.7
  TRPML1 ag: 0.8
  TRPML1 blocker: 8
  D2 potentiator: 3

34) CN(CC(=O)N1CC=C(c2ccccc2)CC1)S(=O)(=O)c1cnc[nH]1
  PINK1 modulator: 0.6%
  Six1-Eya2 blk: 1
  D2 agonist: -1.6
  TRPML1 ag: -0.9
  TRPML1 blocker: 0
  D2 potentiator: 4

47) CN(Cc1ccco1)C(=O)CCc1nc2sc3c(c2c(=O)[nH]1)CCCC3
  PINK1 modulator: 3.5%
  Six1-Eya2 blk: -2
  D2 agonist: -11
  TRPML1 ag: 0.4
  TRPML1 blocker: 32
  D2 potentiator: -9

More entries.
entry	canonical_smiles	PINK1 modulator	Six1-Eya2 blk	D2 agonist	TRPML1 ag	TRPML1 blocker	D2 potentiator
61	Cc1ccc(C)c(N2CCN(C(=O)c3cc4cc5ccc(C)cc5nc4s3)CC2)c1	0.8%	·	·	-0.7	0	·
62	COc1cc(NC(=O)Cn2cnc(S(=O)(=O)N3CCc4ccccc43)c2)cc(OC)c1OC	-0.2%	-23	-1.2	-0.2	-1	-18
63	CCCc1[nH]c(=O)c(C#N)c2c1COC(C)(C)C2	-1.5%[38.3 µM]	3	-2.9	-0.5	1	-11
64	COc1ccc(CN2C(=NC(=O)C3CCCO3)SC3CS(=O)(=O)CC32)cc1 (configuration not stated)	-0.3%	8	-3.3	0.8	10	-3
65	COc1ccc2cc(CCNC(=O)c3ccc4c(c3)OCO4)c(=O)[nH]c2c1	1.5%	-6	2.3	-0.4	36	-3
66	CN=C1SC(CC(=O)Nc2ccccc2F)C(=O)N1C (configuration not stated)	0.9%	-4	-3.5	-0.6	-24	-3
67	COC(=O)C1=C(COc2ccc(C=O)cc2OC)NC(=O)NC1c1cc(C)ccc1C (configuration not stated)	-0.3%	-16	0.2	0.4	1	-3
68	COc1ccccc1CCC(=O)Nc1nc2ccccc2[nH]1	0.1%	23	-2.9	0.3	12	-10
69	COc1ccc(C2CC(=O)c3ccccc3O2)cc1 (configuration not stated)	2.6%	-4	-1.3	-0.3	-4	-8
70	CC(C)(C)c1ccc(-c2n[nH]c(=S)n2Cc2ccccc2)cc1	3.2%	-10	-9.0	1.5	-19	-5
71	Cc1cc(C)cc(N(CC(=O)Nc2ccc(C)cc2Cl)S(=O)(=O)c2c(C)[nH]c(=O)[nH]c2=O)c1	-1.2%&-0.3%	-6	-2.4	-0.5&-1.1	-2&-16	-5
72	COC(=O)CN(c1ccc(OC)cc1OC)S(=O)(=O)c1ccccc1[N+](=O)[O-]	-0.8%	5	-1.5	-0.5	4	-7
73	COc1ccc(-c2cc(C(=O)Nc3ccc(OC)c(OC)c3)no2)cc1	-0.1%	1	-2.1	-1.1	11	-6

Not a hit list; 1% or so of the library scored in one or more.
